# Screens from PubChem BioAssay.
# Ba CapD inh: Bacillus anthracis CapD inhibitors, primary screen, biochemical, fluorescence intensity; actives 0.23% (n = 140,000); AID 492967, 2010; z-score (no concentration beside the values); purified CapD enzyme, fluorescence intensity read-out; hits give low values; some hits fall short of the stated cut; CapD gamma-glutamyltranspeptidase (Bacillus anthracis Ames Ancestor);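 active = z-score under -4 in either of two replicates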;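 also: stock transfer was 100 nL into about 40 µL; score is relative to mean and spread of the plate; one replicate is shown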
# AID504770: growth inhibition of E. coli YBA685, primary screen, V. cholerae RctB inhibitors | actives 0.27% (n = 130,000) | z-score (concentration not given with the values) | E. coli YBA685 rctB-dependent plasmid, OD600 growth, 3 h; hits give low values;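 active = z-score under -2 on both plates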;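 also: wells of about 30 µL received 100 nL stock; score is relative to mean and SD of the test wells; the first replicate is given; strong numbers were not always called active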
# * = called active by the depositor; x = no result given; & = joins results of further samples. Not all compounds are listed; the hit share may differ from the screen's.
SMILES,Ba CapD inh,AID504770
COc1ccccc1CC(=O)Nc1ccc(-c2nc3ccccc3[nH]2)cc1,16.2,-0.55
CN(CC(=O)O)C(=O)Nc1ccc(Cl)cc1Cl,0.13,0.15
Fc1cccc(CN2CCN(C(=S)NCc3ccco3)CC2)c1,0.025,-0.3
O=C(Cc1ccccc1Br)N(CCCN1CCOCC1)Cc1cccs1,x,-0.25
COc1cccc(-c2cn3c4c(=O)n(C)c(=O)n(C)c4nc3n2-c2ccc(C)cc2)c1,0.32,x
Cc1ccc(C(C(=O)NC2CC2)N(C(=O)Cn2nnc(-c3cccs3)n2)c2cnc3ccccc3c2)o1 (stereo not drawn),x,0.75
CNC(=O)c1ccc(CN2CCc3ccccc3C2)cc1,x,-0.35
O=C(OCC(=O)N1CCNC1=O)C1=COCCO1,x,-0.7
CCc1ccc(-c2cc(O)cc3sc(=O)oc23)cc1,-0.67,-1.1
CCn1c(=O)c(=O)[nH]c2cc(C(=O)Nc3nc4c(s3)CCCC4)ccc21,x,0.5

# Of the compounds above, these have nitrogen in an aromatic ring.
SMILES,Ba CapD inh,AID504770
COc1ccccc1CC(=O)Nc1ccc(-c2nc3ccccc3[nH]2)cc1,16.2,-0.55
COc1cccc(-c2cn3c4c(=O)n(C)c(=O)n(C)c4nc3n2-c2ccc(C)cc2)c1,0.32,x
Cc1ccc(C(C(=O)NC2CC2)N(C(=O)Cn2nnc(-c3cccs3)n2)c2cnc3ccccc3c2)o1 (stereo not drawn),x,0.75
CCn1c(=O)c(=O)[nH]c2cc(C(=O)Nc3nc4c(s3)CCCC4)ccc21,x,0.5

# The listing continues:
SMILES,Ba CapD inh,AID504770
NC(=O)C1CCN(CC(O)CSc2ccc(F)cc2)CC1 (stereo not drawn),0.03,0.15
CCOC(=O)C1=C(C)N=c2s/c(=C\c3ccc(OC)c(O)c3)c(=O)n2C1c1ccc(OC)c(OC)c1 (stereo not drawn),0.06,x
O=C(Nc1nccs1)c1ccc(S(=O)(=O)N2CCCc3ccccc32)cc1,x,1.1
CN1Cc2c(N)cccc2C(c2ccccc2)C1 (stereo not drawn),0.61&0.165,0.85
CC1=NN(c2ccc(C(=O)NC(CC(C)C)C(=O)OC(C)(C)C)cc2)C(=O)C1 (stereo not drawn),-1.07,x
O=C(O)CC(CC(=O)Oc1ccc(F)cc1)c1ccc(Cl)cc1Cl (stereo not drawn),0.515,0
CCN(CC)C1=CC(=O)OC12CCCCC2,x,1.05
CSc1ccc(C(=O)NC(=O)NCc2cccc(Cl)c2)s1,64.2,0
COc1cc(OC)cc(C(=O)Nc2cc(NC(=O)c3ccco3)ccc2OC)c1,x,-0.4
CCOc1ccccc1C1C(C#N)=C(SCC(=O)OCc2ccccc2)NC(=O)C1C#N (stereo not drawn),0.205,x
COC(=O)c1cc(-c2ccccc2)n[nH]1,4.26,-0.35
CC(=O)NCc1ccc(-c2csc(NC(=O)c3cnn(-c4ccccc4)n3)n2)cc1,x,0.65
COC(=O)CC1C(=O)NCCN1C(=O)CSc1nc2ccccc2s1 (stereo not drawn),x,0.15
CCOc1ccc(CNC(=O)c2cc3cc4ccc(OC)cc4nc3o2)cc1,-0.19,0.65
CN(C)C(=O)C12CCC(C)(C(=O)C1)C2(C)C (stereo not drawn),0.22,-0.85
S=c1nc(N=Cc2ccco2)cc(/N=C/c2ccco2)[nH]1,-1.69,-0.45
O=C1CSC(c2ccc(Cl)cc2)C(=O)N1c1ccc(Cl)cc1 (stereo not drawn),2.62,x
CCN1C(=O)/C(=c2/s/c(=C\C=C3\Sc4ccc(OC)cc4N3CC)c(=O)n2CC)SC1=S,0.025,x
COc1ccc(C(C(O)C(=O)c2c[nH]c3ccccc23)N2CCN(c3ccccc3)CC2)cc1 (stereo not drawn),x,-0.5
CC1CCC(C(C)C)C(OC(=O)Cn2nnc(-c3ccccc3)n2)C1 (stereo not drawn),x,1.05
O=C(NCCCO)NC1CCCCC1,0.105,-0.8
O=C(COc1ccccc1)Nc1ccc(-c2nc3ncccc3o2)cc1,95.3,0.75
COC(=O)c1sc(Sc2cccs2)c2c1CC(C)(C)CC2=O,0.27,1.7
CCc1ccc(S(=O)(=O)NCC(O)COc2ccc(OC)cc2)cc1 (stereo not drawn),0.46,-0.15
CCN(CC)S(=O)(=O)c1cc(C(=O)N(C)c2ccccc2)ccc1Cl,0.285,-0.05
N#CCC(=O)NCc1ccc(F)cc1F,-0.03,-0.6
CCC(C)Cn1c(C(C)O)nc2ccccc21 (stereo not drawn),-1,-0.6
O=C(CN1C(=O)C2(OCCO2)c2ccccc21)c1ccccc1C(F)(F)F,0.345,x
Cc1cc(-c2ccc(C)c(S(=O)(=O)NCCN3CCN(c4cc(Cl)ccc4C)CC3)c2)on1,0.44,-0.05
O=c1ccc(C(F)(F)F)cn1CN1CCN(S(=O)(=O)c2ccc3c(c2)CCCC3)CC1,x,0.05
c1ccc(CNP2(NCc3ccccc3)=NP(NCc3ccccc3)(NCc3ccccc3)=NP(NCc3ccccc3)(NCc3ccccc3)=N2)cc1,-0.25,x
COC(=O)c1ccc(CSc2nnc(-c3ccc(OC)cc3)o2)cc1,0.19,-0.85
CCC(=O)Nc1ccc(-c2nc3c(C)cccc3c(=O)o2)cc1,x,0.65
COc1ccc2c(CCNC(=O)OCCN3CCN(Cc4cc5ccccc5o4)CC3)c[nH]c2c1,-0.225,x
Cc1cc(C)n(-c2n[nH]c(=O)c3ccccc23)n1,-0.94,-1.1
CC(=O)C1(C)CC2(CC(C)(C)OC2=O)C(=O)O1 (stereo not drawn),0.195,x
COC(=O)CNC(c1ccccc1)c1cc(Br)ccc1NC(C)=O (stereo not drawn),-0.18,-0.4
CCN1C(=O)C2CSCN2C1=O (stereo not drawn),x,-0.35
CCN1C(=O)C(O)(CC(=O)C(C)(C)C)c2cc(Br)ccc21 (stereo not drawn),-0.655,1.55
Clc1ccc(CCNc2ncnc3[nH]ncc23)cc1,x,0.55
CC(Oc1cccc2c1OC(C)(C)C2)C(=O)N1CCc2ccccc21 (stereo not drawn),x,-0.1
NC(=O)Cn1c(CSc2nnnn2C2CCCC2)nc2ccccc2c1=O,x,0.25
CCN(CC)S(=O)(=O)c1ccc(N2CCN(c3ccc(C(F)(F)F)cn3)CC2)nc1,x,0.55
O=C(c1nn2c(C(F)(F)F)c3c(nc2c1Cl)-c1ccccc1CC3)N1CCOCC1,-0.01,x
CCCc1cc(=O)[nH]c(SCC(=O)c2cc(C)n(-c3ccc4c(c3)OCO4)c2C)n1,x,2.3
CSc1ncc(C(=O)N2CCN(c3ncccn3)CC2)n1-c1ccccc1,x,0.4
Cc1c(C(=O)O)sc2ncn(Cc3ccccc3F)c(=O)c12,-0.695,2.35
N#Cc1ccc(C(=O)OCC(=O)Nc2ccc(N3CCCCC3)cc2)cc1,x,0.8
COc1cc(OC)nc(CSCC(=O)N(C(C)C)C(C)C)n1,-0.565,x
Cc1ccc(C)c(NC(=O)c2cccs2)c1,0.76,-0.2

# Already shown: entries from further up.
SMILES,Ba CapD inh,AID504770
NC(=O)Cn1c(CSc2nnnn2C2CCCC2)nc2ccccc2c1=O,x,0.25
CCN(CC)S(=O)(=O)c1ccc(N2CCN(c3ccc(C(F)(F)F)cn3)CC2)nc1,x,0.55
O=C(c1nn2c(C(F)(F)F)c3c(nc2c1Cl)-c1ccccc1CC3)N1CCOCC1,-0.01,x
CCCc1cc(=O)[nH]c(SCC(=O)c2cc(C)n(-c3ccc4c(c3)OCO4)c2C)n1,x,2.3
CSc1ncc(C(=O)N2CCN(c3ncccn3)CC2)n1-c1ccccc1,x,0.4
Cc1c(C(=O)O)sc2ncn(Cc3ccccc3F)c(=O)c12,-0.695,2.35

# The list goes on.
SMILES,Ba CapD inh,AID504770
Cc1nc2c(c(C)nn2-c2ccccc2)c(C)c1CCC(=O)N1CCCC1,5.17,1.15
C=CCn1c(SCc2nc3ccccc3c(=O)[nH]2)nnc1-c1cccc(OC)c1,x,0.55
CCOC(=O)c1c(CS(=O)(=O)c2cccc(C(F)(F)F)c2)oc2c(F)c(F)c(F)c(F)c12,0.08,-0.1
CCOc1cc(-c2nc3sc4c(c3c(=O)[nH]2)CCCC4)ccc1OCCOc1ccc(C)c(C)c1,1.23,x
COC(=O)CSC1=C(C#N)C(c2ccccc2Cl)C(C#N)C(=O)N1 (stereo not drawn),1.83,1.15
CC(C)Nc1c(-c2ccccc2)nc2ccccn12,x,1.6
COc1ccccc1N1CCN(Cc2cccc([N+](=O)[O-])c2)CC1,0.18,x
Cc1ccc(CNC2=NCCC2)n1C,x,0.5
CCN1CCN(C(=O)C(C)Nc2cc(Cl)c(OC)cc2OC)CC1 (stereo not drawn),x,-0.15
O=C(CCCc1ccccc1)Nc1nnc(C(F)(F)F)s1,0.285,0.3
CC(C)Sc1n[nH]c(=O)n1-c1ccc2c(c1)OCCO2,0.575,-0.3
COc1cc(OC)nc(N2CCN(C(c3ccccc3)c3ccccc3)CC2)n1,-0.215,x
CCOC(=O)c1cc(-c2ccc(S(=O)(=O)N3CCCc4ccccc43)s2)on1,-0.505,0.55
O=S(=O)(NCCN1CCCC1)c1ccc(C(F)(F)F)cc1,-0.365,0.3
CC1CCC(NC(=O)CN2CCC(n3nnc4ccccc43)CC2)CC1 (stereo not drawn),x,-0.75
O=C(Nc1ccccc1)C1CC(=O)n2ncnc2N1 (stereo not drawn),-0.075,-0.55
COc1cc(OC)nc(C(c2ccccc2)N2CCN(C(=O)c3cccc(C(F)(F)F)c3)CC2)n1 (stereo not drawn),-0.275,x
O=C1C=CC(=O)N1c1cc(C(F)(F)F)ccc1Cl,-0.765,1.25
CC(=O)Nc1cccc(C(=O)N(C)CCOc2ccccc2)c1,x,0
CCOc1ccc(C(=O)OCC(=O)Nc2ccc(S(N)(=O)=O)cc2)cc1,x,2
Cc1cc(Nc2cccc(Cl)c2)nc2ccc(NC(=O)c3ccccn3)cc12,1.13,0.4
C=CCN(CC=C)Cn1c(=S)oc2ccc(S(=O)(=O)Nc3ccc(OC)cc3)cc21,x,0.05
CC12CCC3C(CC[C@@]4(C)CC(=O)CCC34CO)C1CCC2=O (stereo partly drawn),0.615,x
COc1ccccc1C(=O)NNC(=O)c1cccn1C,0.425,x
CC(=O)NC1C(OCc2ccccc2)OC(CO)C(O)C1OC(C)=O (stereo not drawn),x,-0.5
COc1ccc(S(=O)(=O)N2CCN(C(=O)Cc3ccc(F)c(F)c3)CC2)cc1,-0.465,x
O=C(O)c1cccc(NC(=O)C2CCCCC2C(=O)O)c1 (stereo not drawn),-0.405,-0.1
O=C(CCc1ccc(O)cc1)N/N=C/c1ccc(Cl)c(Cl)c1,-0.89,x
N#CC(C#N)=C1NC2(CCCCC2)Cc2ccccc21,-0.085,x
CC(=O)Nc1ccc(N=NN2CCCCC2)cc1,x,-2.5*
N/C(Cn1ccc(C(F)(F)F)n1)=N\OC(=O)Nc1ccc(Cl)cc1,0.3,-0.35
COc1cc(CN2CCN(C(=O)c3ccccc3F)CC2)cc(OC)c1OC,-0.825,-0.05
O=C(CN1CCC(n2nnc3cc(C(F)(F)F)ccc32)CC1)Nc1ccc(N2CCCC2)cc1,x,-0.2
CN(C(=O)COC(=O)c1cc(=O)[nH]c2ccccc12)c1c(N)n(Cc2ccccc2)c(=O)[nH]c1=O,x,-0.4
COc1ccc(CCNC(=O)CCCn2c(SCC(=O)Nc3ccc(C)cc3)nc3ccccc3c2=O)cc1OC,0.4,x
Cc1ccc(S(=O)(=O)Nc2ncc(C(F)(F)F)cc2Cl)cc1,0.375,x
COc1ccc(CN2C(=O)CCC2(C)C(=O)NCCC(C)C)cc1 (stereo not drawn),0.515,-0.35
COc1ccc(C=C2C(=O)NC(=S)NC2=O)cc1OCc1ccc(Cl)cc1Cl,-0.36,x
O=c1c2sccc2nc(SCc2ccccc2)n1-c1ccccc1,-0.3,x
CCc1cc2c(=O)c(-c3ccn(C(C)=O)n3)coc2cc1OC(C)=O,-0.365,0.65
O=C(/C=C/c1ccccc1)OCc1cnc(Cl)s1,0.265,-0.2
CN1CCN(C(=O)/C(C#N)=c2\s/c(=C\c3ccc4c(c3)OCO4)c(=O)n2Cc2ccco2)CC1,x,-1
COc1ccccc1CNC(=O)c1cn(C)c(=O)c2cc(OC)c(OC)cc12,0.77,-0.25
O=C1CC(c2ccsc2)Sc2ccccc2N1 (stereo not drawn),-0.035,x
N#CSCC(=O)N1c2ccccc2CCc2ccccc21,x,0.7
c1ccc(Cc2ccc[n+](Cc3ccccn3)c2)cc1,0.205,0.35
Nc1c(-c2nn[nH]n2)cnn1-c1cc(Cl)cc(Cl)c1,0.085,x
NC(=O)CC12CC3CC(C1)CC(C(N)=O)(C3)C2,-0.175,-0.05
Cc1nn(-c2ccccc2)c(C)c1CN1CCN(S(=O)(=O)c2ccccc2OC(F)(F)F)CC1,-0.095,x
COC(=O)c1ccccc1NC(=O)N1CCC(CN2CCc3ccccc3C2)CC1,35.3,1.65
# Remaining list, next part.
SMILES,Ba CapD inh,AID504770
Nc1ccc(Oc2ccc3ccccc3c2Cl)c(Cl)c1,0.69,1.05
COC(=O)c1ccc2ncccc2c1,-0.17,x
CCOc1ccccc1C(=O)NCc1ccc2c(c1)OCO2,-0.32,-0.3
O=C1c2ccccc2C(=O)N1CN1CCSCC1,0.34,-0.3
CCn1c(=O)c(C(=O)Nc2ccc(I)cc2)c(O)c2ccccc21,0.005,x
COc1cc(OC)nc(CSc2ncc(C(=O)NCc3ccc(Cl)cc3)n2C)n1,-0.445,x
